High-throughput results deposited in PubChem by several laboratories.
eIF4H inh: inhibitors of RNA binding by human eIF4H; Q15056; eIF4H fluorescence polarization binding assay; inhibition, % at 35 µM; 0.94% of 290,000 active; AID 2012;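 active = 50% or more with normal probe brightness, or confirmed in later tests; inconclusive = above 50% with abnormal brightness, or retests that disagree; inactive = below 50% or failed in later tests; about a fifth of its hits are not listed in these tables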;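 also: calls also rest on retests at 20 µM and on dose response follow-up; 0% = protein and probe with vehicle and 100% = probe without protein; strong numbers were not always called active; many hits fall short of the cut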
Rce1 inhib: yeast Ras-converting enzyme inhibition | calls only | 0.27% of 290,000 active | yeast membranes, quenched prenylated peptide cleavage fluorescence | Q03530;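 active = fall in fluorescence gain of 50% or more versus controls, with final raw signal at or below 3038400; inconclusive = same 50% fall but final raw signal above 3038400; inactive = fall in fluorescence gain under 50%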;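 also: plate controls were neutral control wells for no effect and wells lacking membranes for full effect; tested at 10 µM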
Target sequence (Q03530 whole entry, looked up): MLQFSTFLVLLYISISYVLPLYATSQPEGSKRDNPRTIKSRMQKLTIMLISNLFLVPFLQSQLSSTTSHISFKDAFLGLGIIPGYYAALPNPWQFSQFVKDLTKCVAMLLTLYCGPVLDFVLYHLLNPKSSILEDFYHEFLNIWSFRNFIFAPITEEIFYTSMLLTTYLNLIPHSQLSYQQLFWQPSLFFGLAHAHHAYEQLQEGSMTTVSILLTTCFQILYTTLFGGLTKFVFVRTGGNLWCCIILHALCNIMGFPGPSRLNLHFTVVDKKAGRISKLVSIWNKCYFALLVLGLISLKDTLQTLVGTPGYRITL
Yeast UUG start: alters start codon recognition fidelity in yeast; S. cerevisiae UUG-firefly luciferase reporter, luminescence/redox ratio; activity score, % at 18.7 µM; 0.13% of 350,000 active; AID 602363;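 active = replicate mean at a twofold rise or more, about +100% in these data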;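 also: firefly luciferase made from a UUG start codon reports start codon fidelity; reporter light over untreated wells divided by growth signal over untreated wells; some hits fall short of that in this replicate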
HIV Env fusion: inhibitors of HIV Env-mediated cell fusion. inhibition, % at 12.3 µM. 1.1% of 360,000 active. HeLa-JRFL Env/CEM21 cell fusion, luciferase;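 active = mean replicate inhibition score of at least 50 and every replicate individually at or above 50; inconclusive = only one of the two criteria met; inactive = mean below 50 and not all replicates reaching 50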;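 also: 0% = plate neutral controls and 100% = maraviroc near 300 nM; one replicate is shown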
PABP polyA inh: blocks human PABP binding to poly(A) RNA. AID 2014. inhibition, % at 35 µM. fluorescence polarization. 1% of 290,000 active;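 active = 50% or more with normal probe brightness, or confirmed in later tests; inconclusive = above 50% with abnormal brightness, or retests that disagree; inactive = below 50% or failed in later tests; about a fifth of its hits are not listed in these tables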;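 also: calls also rest on retests at 20 µM and on dose response follow-up; controls were probe without protein and protein plus probe with vehicle; some compounds called inactive have numbers as strong as hits; many hits fall short of the cut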
Target sequence (P11940 whole entry, looked up): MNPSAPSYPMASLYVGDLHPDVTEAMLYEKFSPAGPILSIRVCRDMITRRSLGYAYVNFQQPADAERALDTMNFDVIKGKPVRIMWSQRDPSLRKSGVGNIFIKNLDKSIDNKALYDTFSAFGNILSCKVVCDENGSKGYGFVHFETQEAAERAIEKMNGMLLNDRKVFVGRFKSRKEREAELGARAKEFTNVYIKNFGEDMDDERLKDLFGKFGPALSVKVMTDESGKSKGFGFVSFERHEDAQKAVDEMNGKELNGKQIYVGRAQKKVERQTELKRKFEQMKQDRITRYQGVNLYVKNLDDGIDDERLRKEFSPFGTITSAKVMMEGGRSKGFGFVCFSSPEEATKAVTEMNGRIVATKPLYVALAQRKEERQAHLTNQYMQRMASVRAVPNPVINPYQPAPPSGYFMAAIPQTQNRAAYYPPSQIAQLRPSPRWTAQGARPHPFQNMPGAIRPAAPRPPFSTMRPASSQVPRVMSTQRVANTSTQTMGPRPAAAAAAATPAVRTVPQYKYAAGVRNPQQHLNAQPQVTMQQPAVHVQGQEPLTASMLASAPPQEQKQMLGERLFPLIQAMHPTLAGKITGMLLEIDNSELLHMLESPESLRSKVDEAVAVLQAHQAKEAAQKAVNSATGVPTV
MT1-MMP act inh: inhibitors of human MT1-MMP activation | AID 651647 | P50281 | GFP/RFP ratio change, % at 20 µM | HT1080 RFP-PRO-GFP cells, GFP/RFP ratio fluorescence, overnight; percent of plate control window, DMSO zero | 0.061% of 360,000 active;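 active = GFP/RFP ratio change of at least 30% with cell ATP level not reduced by more than half and red fluorescence within 50% of control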; also: strong numbers were not always called active
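Compound: 20 µM single dose, 1% DMSO / System: HT1080 RFP-PRO-GFP cells / Controls: DMSO and RFP-L50D-GFP cell wells / Read-out basis: GFP/RFP fluorescence ratio / Schedule: overnight compound exposure at 37 °C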
CSC inhib: blocks cancer stem cells; cancer stem cell-like cells viability, luminescence; inhibition, % at 7.5 µM; 1.1% of 300,000 active;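 active = mean at 75% or more and at least half the replicates too; inconclusive = mean and replicates disagree; tested in HMLE shEcad cells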;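 also: 0% = median of negative and 100% = median of positive control wells; the first replicate is given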
eIF4H inh retest: also measured in eIF4H inh; calls as there; inhibition, %; compound at 20 µM; confirmation average;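 mean of two retest wells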
PABP polyA inh retest: recorded beside PABP polyA inh, whose call it bears; inhibition, %; compound at 20 µM; confirmation repeats;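 mean of two retest wells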
MT1-MMP act inh RFP: second read-out of MT1-MMP act inh, no call of its own (marks repeat the call); RFP signal change, %; measured here: RFP expression control read;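 0 = vehicle wells; hits needed this value within 50% of zero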
* = called active by the depositor; i = inactive; ? = inconclusive; . = no result given; & = joins results of further samples. A portion of the library; the hit share may differ from the screen's.

SMILES	eIF4H inh	Rce1 inhib	Yeast UUG start	HIV Env fusion	PABP polyA inh	MT1-MMP act inh	MT1-MMP act inh RFP	CSC inhib	others
CC1(C)Cc2c(cnn2-c2ccccc2)-c2c1c1ccccc1n2CC(O)CCl (configuration not stated)	25	i	-9	-58	36	-10	-8	10
COc1ccc2cc(C3c4cc(OC)c(OC)cc4CCN3C(=O)c3ccco3)c(=O)[nH]c2c1 (configuration not stated)	-6	i	8	-19	4	-4	-3	.
COc1cccc(COCC(O)Cn2cnc3cc(C)c(C)cc32)c1 (configuration not stated)	6	i	-15	4	?	4	0	-5
COc1ccc(CCCc2nnc(SCC(=O)Nc3ncc(C)s3)o2)cc1	8	i	6	.	-4	-3	-3	0
C#CCOCCOCCOCCNc1nc(N2CCN(C(=O)Cn3cc(CCCCN)nn3)CC2)nc(N2CCN(C(=O)[C@H](CCCCN)n3cc(CCC(=O)O)nn3)CC2)n1	.	.	-16	11	.	4	3	3
CC1(c2ccccc2Cl)NC(=O)N(CC(=O)c2ccc3c(c2)OCO3)C1=O (configuration not stated)	.	i	99	-7	.	4	-1	-14
NC(=O)c1nnsc1Sc1c(C(N)=O)nnn1-c1cccc(N)c1	-2	i	.	28	25	-4	-2	.
CC(C)c1nc(SCC(=O)N2CCOCC2)c2c(=O)n(C)c(=O)n(C)c2n1	3	i	-1	4	1	2	0	-4
COCCn1c(SCC(=O)N2CCCCCC2)nc2c(c1=O)SCC2	-17	i	-6	.	12	1	-2	-8
Cc1cc(-c2ccco2)n(CC(=O)NCCCc2ccccc2)n1	-17	i	-10	-13	6	1	2	-11
Cc1ccccc1NC(=O)Cn1c(NCC(C)O)nc2ccccc21 (configuration not stated)	1	i	.	-5	-2	2	2	-3
O=C(COC(=O)Cn1cnc2ccccc21)NCCc1ccc(Cl)cc1	1	i	-3	-35	-3	2	5	-2
Cc1cccc(NC(=O)COC(=O)c2cccc3c2C(=O)c2ccccc2C3=O)c1C	-19	i	3	-9	1	5	-4	8
O=C(COC(=O)C12CC3CC(CC(C3)C1)C2)Nc1nccs1	5	i	.	-4	-5	1	3	-11
O=C(c1ccc(COc2ccc(Cl)cc2)cc1)N1CCCCC1	-7	i	410*	15	-13	0	-5	1
CN1CCCCC1(C)C(=O)NCc1cc(Cl)ccc1F (configuration not stated)	.	.	-4	15	.	-1	-1	.
CC1CCCCN1C(=O)COC(=O)c1cc([N+](=O)[O-])ccc1N (configuration not stated)	.	i	-21	-11	.	0	0	2
COc1ccc(-n2c(C)c3c(OC)cccc(=O)c3c2C)cc1	15	i	-3	.	13	-25	3	-17
COc1ccc(C2=NNC(=O)CC2)cc1	1	i	.	-5	3	8	1	-9
Cc1cc(-c2nnc(SCC(=O)Nc3ccccc3C(F)(F)F)o2)c(C)n1-c1ccccc1	-2	i	-7	.	4	-3	-3	-8
CCCCNC(=O)C1(C)CCC(=O)N1C1CC1 (configuration not stated)	.	.	-16	3	.	5	6	.
Cc1cc(Nc2ccccc2O)c2ccccc2n1	13	i	-5	7	-4	3	4	-17
O=C(c1ccccc1)N(C1=NCCCCS1)c1ccccc1	17	i	-9	0	4	-1	4	-15
CCC1(C)Cc2ccccc2-c2c1c(=O)n(Cc1ccccc1)c1nnnn21 (configuration not stated)	2	i	4	.	-3	2	1	135*
Nc1ccc(-c2c3ccc(=O)cc-3oc3cc(O)ccc23)c(C(=O)O)c1	.	.	-10	.	.	-103	2	-7

Three records drawn at random from the list so far, as already listed:
SMILES	eIF4H inh	Rce1 inhib	Yeast UUG start	HIV Env fusion	PABP polyA inh	MT1-MMP act inh	MT1-MMP act inh RFP	CSC inhib	others
Nc1ccc(-c2c3ccc(=O)cc-3oc3cc(O)ccc23)c(C(=O)O)c1	.	.	-10	.	.	-103	2	-7
COc1ccc(CCCc2nnc(SCC(=O)Nc3ncc(C)s3)o2)cc1	8	i	6	.	-4	-3	-3	0
COc1ccc2cc(C3c4cc(OC)c(OC)cc4CCN3C(=O)c3ccco3)c(=O)[nH]c2c1 (configuration not stated)	-6	i	8	-19	4	-4	-3	.

(listing goes on)
SMILES	eIF4H inh	Rce1 inhib	Yeast UUG start	HIV Env fusion	PABP polyA inh	MT1-MMP act inh	MT1-MMP act inh RFP	CSC inhib	others
CC(C)[C@H](NC(=O)N1CCn2c1nc1ccccc12)C(=O)N[C@H](C(=O)O)c1ccccc1	-6	i	2	.	3	0	5	-17
Cc1ccc(C(=O)COC(=O)C(C)N2C(=O)C3C4CCC(C4)C3C2=O)cc1 (configuration not stated)	2	i	-20	25	-5	-1	-1	-5
COC(=O)c1cc2sccc2n1CC(=O)Nc1ccc(OC)c(OC)c1OC	-2	i	-15	.	-1	7	0	-8
CC1CCN(C(=O)c2ccc(CSc3nc4ccncc4n3Cc3ccc(F)cc3)cc2)CC1	5	i	-4	27	3	-8	-17	10
CC(=O)N1CCN=C1SCc1ccc(C(F)(F)F)cc1	-7	i	-14	-5	1	-6	2	17
COc1ccc(OC)c(N2C(N)=NC(N)=NC23CCCC3)c1	-8	.	2	.	-3	1	3	-13
O=C(Cc1ccc(Cl)cc1)Nc1ccc2oc(-c3ccncc3)nc2c1	2	i	-17	-29	0	-3	-3	24
Fc1ccccc1N1CCN(c2cnc3ccccc3n2)CC1	-3	i	-39	.	-2	3	-6	-4
CCOC(=O)CNC(=O)C1CCC(CNS(=O)(=O)c2cccc3nsnc23)CC1 (configuration not stated)	5	i	-8	-4	5	0	3	.
CC(=O)Oc1cccc(N2C(=O)C3CC=C(Cl)CC3C2=O)c1 (configuration not stated)	-5	i	-3	.	1	1	2	3
COc1ccc(C(c2sc3ncnn3c2O)N2CCN(c3ccccc3F)CC2)cc1OC (configuration not stated)	-2	i	3	.	9	0	-1	-10
CN1CCN(C(=O)CCc2nnc3ccc(N4CCC5(CC4)OCCO5)nn23)CC1	.	i	3	-13	.	0	0	-18
Cc1ccc(OCCNC(=O)CCNS(=O)(=O)c2ccc(C)cc2)cc1	.	i	10	-34	.	0	0	-12
CCOC(=O)Nc1sc2nc(C)cc(C)c2c1-n1cccc1	-6	i	-11	.	-16	2	0	3
COc1ccc(C2C(C(=O)Nc3cccnc3)=C(C)Nc3nc(-c4ccco4)nn32)cc1 (configuration not stated)	2	i	-8	-12	0	-4	2	-1
O=C1OC(/C=C/c2ccc(Cl)cc2)=NC/1=C/c1ccco1	81	i	-6	-96	-8	-4	5	-2	eIF4H inh retest=-5;PABP polyA inh retest=12
CC(C)N(Cc1nc(-c2ccc(Cl)cc2)no1)Cc1nccn1C	-4	i	4	22	-22	-4	-5	-1
Cc1cccc(NC(=O)C2CCN(S(=O)(=O)c3ccc4c(c3)OCCCO4)CC2)n1	.	i	.	83*	.	1	-26	.
CC(=O)c1sc2nc(=O)c(C)nn2c1C	-5	i	-18	.	-5	3	2	2
CCOc1ccc(CCNC(=O)CN(C)S(=O)(=O)c2cccs2)cc1OCC	.	i	-22	-20	.	-1	3	-10
C=CCOC(=O)C1=C[C@H](c2ccc(C(F)(F)F)cc2)C[C@H](OCCCCO)O1	.	i	13	3	.	1	-2	1
Cc1c(CCC(=O)N[C@@H](CCCNC(N)=O)C(=O)O)c(=O)oc2cc3oc4c(c3cc12)CCCC4	-7	i	.	27	4	6	4	-12
Cc1ccc(NC(=S)NCc2ccco2)c(C)c1	0	i	.	-2	-16	1	0	-11
O=C(Nc1cc(S(=O)(=O)N2CCCCC2)ccc1N1CCCCC1)C1CC1	-2	i	.	15	-10	1	1	-6
C[C@H]1CCCCO[C@H](CN(C)Cc2ccncc2)[C@@H](C)CN([C@@H](C)CO)C(=O)c2cc(NS(=O)(=O)c3ccccc3)ccc2O1	.	.	3&5	11	.	-2	3	.
The list goes on.
SMILES	eIF4H inh	Rce1 inhib	Yeast UUG start	HIV Env fusion	PABP polyA inh	MT1-MMP act inh	MT1-MMP act inh RFP	CSC inhib	others
CNS(=O)(=O)c1cccc(C(=O)OCC(=O)Nc2ccccc2F)c1	7	i	.	1	3	1	3	2
COc1cc(NC(=S)N2CCCCC2C)c(OC)cc1Cl (configuration not stated)	1	i	.	5	0	5	3	8
CCc1cc2c(=O)c(-c3cnn(-c4ccccc4)c3)c(C)oc2cc1OCC(=O)Nc1ccc(F)c(F)c1	-7	i	.	15	0	2	1	28
O=c1cc(CSc2ccc(Cl)cc2)nc(-c2ccccn2)[nH]1	21	i	-32	31	3	13	-5	94*
Cc1cccc(C(=O)N(C(=O)c2cccc(C)c2)N(C)C)c1	.	.	-15	-20	.	-1	2	.
COc1ccc(OC)c(CN2CCN(CCc3ccccc3)C(CCO)C2)c1 (configuration not stated)	2	i	0	9	-5	13	8	-7
COc1ccc(NC(=O)C2CCN(C(=O)Cc3ccccc3)CC2)c(OC)c1	-10	i	.	0	-1	2	2	-6
CCCCNC(=S)Nc1cccc2cnccc12	1	i	.	26	3	-6	-10	-7
CCn1cc(C(=O)NCCCN(C)c2ccccc2)c(=O)c2cc(S(=O)(=O)N(C)C)ccc21	1	i	-12	32	3	2	-1	-19
CC1CN(C(=O)c2ccc3c(c2)OCO3)OC(c2ccccc2)O1 (configuration not stated)	-4	i	-10	.	12	-1	1	6

Quoted from above, 3 compounds:
SMILES	eIF4H inh	Rce1 inhib	Yeast UUG start	HIV Env fusion	PABP polyA inh	MT1-MMP act inh	MT1-MMP act inh RFP	CSC inhib	others
CCc1cc2c(=O)c(-c3cnn(-c4ccccc4)c3)c(C)oc2cc1OCC(=O)Nc1ccc(F)c(F)c1	-7	i	.	15	0	2	1	28
O=c1cc(CSc2ccc(Cl)cc2)nc(-c2ccccn2)[nH]1	21	i	-32	31	3	13	-5	94*
Cc1cccc(C(=O)N(C(=O)c2cccc(C)c2)N(C)C)c1	.	.	-15	-20	.	-1	2	.

Structures listed so far that contain a furan ring, fused or not, in the order listed:
SMILES	eIF4H inh	Rce1 inhib	Yeast UUG start	HIV Env fusion	PABP polyA inh	MT1-MMP act inh	MT1-MMP act inh RFP	CSC inhib	others
COc1ccc2cc(C3c4cc(OC)c(OC)cc4CCN3C(=O)c3ccco3)c(=O)[nH]c2c1 (configuration not stated)	-6	i	8	-19	4	-4	-3	.
Cc1cc(-c2ccco2)n(CC(=O)NCCCc2ccccc2)n1	-17	i	-10	-13	6	1	2	-11
COc1ccc(C2C(C(=O)Nc3cccnc3)=C(C)Nc3nc(-c4ccco4)nn32)cc1 (configuration not stated)	2	i	-8	-12	0	-4	2	-1
O=C1OC(/C=C/c2ccc(Cl)cc2)=NC/1=C/c1ccco1	81	i	-6	-96	-8	-4	5	-2	eIF4H inh retest=-5;PABP polyA inh retest=12
Cc1c(CCC(=O)N[C@@H](CCCNC(N)=O)C(=O)O)c(=O)oc2cc3oc4c(c3cc12)CCCC4	-7	i	.	27	4	6	4	-12
Cc1ccc(NC(=S)NCc2ccco2)c(C)c1	0	i	.	-2	-16	1	0	-11
